Compound activity (PubChem BioAssay)
H5N1 CPE – MDCK cell protection from H5N1 avian flu; inhibition, % at 50 µM; AID 740; 0.07% of 96,000 active; cytopathic effect, luminescence, 72 h; hits give high values; no value below 0 was filed and about half of the inactive calls have no number; reference of the scale not given here; in the data active = inhibition above about 25%
An asterisk follows results filed as active; i = inactive. The list is partial; rates above refer to the full screens.

SMILES | H5N1 CPE
O=C(NCCC1=CCCCC1)C1CCN(S(=O)(=O)c2ccc(-n3cnnn3)cc2)CC1 | i
Cc1ccc(C)c(NS(=O)(=O)c2cc(C(=O)Nc3ccccc3-c3ccccc3)ccc2Cl)c1 | i
Cc1cnc(C(=O)Nc2ccc(-n3cnnn3)cc2)cn1 | 0.4
CN(CCNC(=O)C1CCN(S(=O)(=O)c2cnc[nH]2)CC1)Cc1ccccc1 | i
COc1cc(=O)[nH]c(=O)n1CC(=O)c1ccccc1 | i
COc1cccc(C(=O)Nc2cc(C(=O)NCCc3ccccc3)ccc2Cl)c1 | 0.1
C=C(C)Cn1c(CCNC(=O)C(C)C)nc2ccccc21 | 3.0
COc1ccc(NC(=O)COC(=O)c2c(-c3ccccc3)noc2C)cc1 | 1.5
Cc1ccnc(N/N=C/c2ccco2)n1 | 2.0
COCCn1c(SCc2nc(N)nc(Nc3ccccc3C)n2)nc2ccccc2c1=O | i
COc1cccc(C(=O)Nc2nc(-c3ccc4c(c3)OCO4)cs2)c1 | 0.1
CCn1c(O)c(C(C#N)=C2N=c3ccccc3=N2)c2ccccc21 | 1.6
O=C1CCCC(O)=C1C=NCCc1ccccc1 | 1.1
CCOc1ccc(NC(=O)c2nnn(CC(=O)Nc3ccccc3OC)c2N)cc1 | i
CCCn1nnc(NC(=O)Cc2ccccc2)n1 | 2.1
COc1cnc(-c2ccccn2)nc1Oc1ccc(Cl)cc1 | 0.6
COc1cc(-c2nnc(SCC#CCO)o2)cc(OC)c1OC | i
Cc1cc(=O)n2c(c1C#N)SC1CCCCC12O (stereo not drawn) | i
Cn1c(=O)c2c(SCC(=O)N3CCOCC3)nc(CC(C)(C)C)nc2n(C)c1=O | 3.4
CCOC(=O)c1c(C)cccc1OCC(N)=O | i
COc1ccc(-c2noc(Cc3ccccc3OC)n2)cc1 | i
Cc1ccc(C(C(=O)NC2CCCCC2)N(C(=O)c2csnn2)C2CC2)o1 (stereo not drawn) | i
N#C/C(=C/N1CCOCC1)c1ccccc1 | 0.2
COCCn1nnnc1C(c1ccc2ncccc2c1)N1CCN(c2ccccc2F)CC1 (stereo not drawn) | 0.0
CCCn1c(SCC(=O)Nc2ccccc2C(=O)OC)nc2c1c(=O)n(C)c(=O)n2C | 1.0

Continued, starting with the last 2 of the part before.
SMILES | H5N1 CPE
COCCn1nnnc1C(c1ccc2ncccc2c1)N1CCN(c2ccccc2F)CC1 (stereo not drawn) | 0.0
CCCn1c(SCC(=O)Nc2ccccc2C(=O)OC)nc2c1c(=O)n(C)c(=O)n2C | 1.0
Cn1c(CNc2nc(-c3ccccc3)cs2)nnc1SCC(=O)N1CCc2ccccc21 | i
Cc1ccc(-c2nnn(CC(=O)N(Cc3ccco3)C(C(=O)NC(C)(C)C)c3cccs3)n2)o1 (stereo not drawn) | i
CCOc1ccc(-n2c(SCC(=O)Nc3ccc(OC)cc3OC)nc3c(c2=O)SCC3)cc1 | i
COc1ccc(S(=O)(=O)N2N=C(C)Oc3ccccc3C2=O)cc1 | i
CN(C)Cc1c(O)ccc2oc(Cc3ccccc3)cc12 | i
CCCCCC(=O)OC(CN1CCCCC1)CN1CCCC1=O (stereo not drawn) | i
CCOC(=O)Nc1cc(C)c(Cl)cc1OC | 1.2
O=C(COc1ccccc1-c1ccccc1)Nc1ccc(S(=O)(=O)NCc2ccco2)cc1 | i
O=C(CN1CCCC1)Nc1ccccc1Cl | 1.1
CC1(C)CC(=O)C=C(N=CC2=C(O)CC(C)(C)CC2=O)C1 | 3.4
CN(C)c1cccc(NC2=CC(=[N+]3CCOCC3)CC(C)(C)C2)c1 | 0.2
COc1cccc(C2CC(c3cccc(Br)c3)n3nc(N)nc3N2)c1 (stereo not drawn) | 0.5
Cc1cc(Nc2ncc(Cl)cc2Cl)n[nH]1 | i
COc1ccc2[nH]cc(CCN3C(=O)CCC3=O)c2c1 | i
CCOc1ccc(OCC)c(NC(=O)C2CCCN(c3ncccn3)C2)c1 (stereo not drawn) | i
CCCCCC(=O)Nc1cccc(-c2nc3ncccc3o2)c1 | i
CCCc1nc2scc(-c3ccc(C)cc3)c2c(=O)n1N | 0.2
O=C(CN1C(=O)c2ccccc2C1=O)OC(C(=O)c1ccc(Cl)cc1)c1ccccc1 (stereo not drawn) | 0.2
O=C(COC(=O)c1cc([N+](=O)[O-])ccc1NCc1ccccc1)NC1CCCc2ccccc21 (stereo not drawn) | i
O=C1c2ccsc2SCCN1Cc1ccc(Cl)cc1Cl | i
Cc1cc(C)nc(NC(=O)c2c(-c3ccccc3Cl)noc2C)n1 | 1.8
CCC1=NC(c2ccccc2Cl)N(O)C1(C)C (stereo not drawn) | 0.2
CC(NC(=O)c1ccccc1NC(=O)c1ccco1)C(=O)O (stereo not drawn) | i
CCOC(=O)CC(=O)CSc1[nH]c(=O)cc(C)c1C#N | 0.6
O=C(Cc1ccccc1)N/N=C/C=C/c1cccc([N+](=O)[O-])c1 | 0.1

(more compounds)
SMILES | H5N1 CPE
CC(=O)Nc1ccc(NC(=O)CSCCc2ccccn2)cc1 | 0.1
CCOc1ccc(C(F)(F)F)cc1NC(=O)c1ccc(OC)c([N+](=O)[O-])c1 | i
CCOC(=O)C1CCN(c2c(NCCCN(CC)Cc3ccccc3)c(=O)c2=O)CC1 | i
Cc1cc(C(C)(C)C)oc1C(=O)N(CC(=O)NC1CCCC1)c1ccc(F)cc1 | 0.7
O=C(O)c1ccc(-c2ccccc2Cl)o1 | 0.3
O=C(Nc1ccc(N2C(=O)C3C4C=CC(C4)C3C2=O)cc1)Nc1cccnc1 (stereo not drawn) | i
COc1ccc(CN2CC(C(=O)NCCc3ccc(C)cc3)CC2=O)cc1 (stereo not drawn) | 0.7
CCN(CC)c1ncnc2c1[nH]c1ccccc12 | 1.4
COc1ccc(/C=C/C(=O)NCc2c(C)nn(C)c2C)cc1COc1ccc(Br)cc1 | i
CCC1SC2=NC(C)=C(C(=O)OC)C(c3ccc(C(=O)OC)cc3)N2C1=O (stereo not drawn) | 3.4
O=C(O)c1ccccc1COc1ccccc1Cl | 1.5
Cc1cccc(-n2c(-c3csc(C(C)C)c3)n[nH]c2=S)c1 | 0.6
CCOC(=O)c1c(NC(=O)c2cccs2)sc2c1CCN(C(=O)OCC)C2 | i
CCCNC(=O)C1CCN(S(=O)(=O)c2c(C)noc2/C=C\c2ccc(OC)cc2)CC1 | i
COc1cc(CNCCC2CCOC(C)(C)C2)ccc1O (stereo not drawn) | i
O=S(=O)(N/N=C\c1c(F)cccc1Cl)c1ccc(Cl)cc1 | i
CCCS(=O)(=O)c1c(S(=O)(=O)CCC)c2c(N)cccn2c1C(=O)c1ccc(F)cc1 | i
Cc1noc(C)c1S(=O)(=O)N1CCC(C(=O)N2CCN(C(=O)c3ccco3)CC2)CC1 | 1.9
CCN(CC)S(=O)(=O)c1ccc(N2CCN(S(=O)(=O)c3ccc4c(c3)OCCO4)CC2)nc1 | 1.8
COc1ccccc1CNC(=O)C1CCCN(S(C)(=O)=O)C1 (stereo not drawn) | i
CCC1CCCCN1CCCNC(=O)c1ccc2c(=O)n(Cc3ccc(OC)cc3)c(=O)[nH]c2c1 (stereo not drawn) | i
CC(=O)NCCCc1nc2ccccc2n1Cc1ccccc1C | i
O=C(NC1CCCCC1)C(c1cccs1)N(C(=O)Cc1c[nH]c2ccccc12)c1ccc(F)cc1 (stereo not drawn) | i
CC1CN(O)C2CCc3c(no[n+]3[O-])C12O (stereo not drawn) | i
CC(=O)Nc1ccc(S(=O)(=O)N2C3CCCC2CC(NC(=O)C2CCCCC2)C3)cc1 (stereo not drawn) | 0.3

Structures from the list above with a COOH group:
SMILES | H5N1 CPE
CC(NC(=O)c1ccccc1NC(=O)c1ccco1)C(=O)O (stereo not drawn) | i
O=C(O)c1ccc(-c2ccccc2Cl)o1 | 0.3
O=C(O)c1ccccc1COc1ccccc1Cl | 1.5

(list continues)
SMILES | H5N1 CPE
Nc1c(Br)cc(Br)c(N2CCCC2=O)c1Br | i
COc1cc(NC(=O)C2COc3ccccc3O2)c(OC)cc1Cl (stereo not drawn) | 1.3
Cc1csc(NC(=O)CCS(=O)(=O)c2ccc(Br)cc2)n1 | 0.0
CCOc1ccc(Cc2c(Cl)nc(N)nc2Cl)cc1 | 0.4
C(=N\Nc1ccccc1)/c1ccc(N2CCOCC2)cc1 | i
Cc1ccc(-c2nnn(CC(=O)N(Cc3cccs3)C(C(=O)NC(C)(C)C)c3ccc(C)o3)n2)o1 (stereo not drawn) | i
O=C(O)C1CCCCC1C(=O)NCc1cn2ccccc2n1 (stereo not drawn) | 0.2
CON(C)c1nc(OCCNC(=O)OCc2ccc(Cl)cc2Cl)nc(N(C)C)n1 | i
CC(C)C(NC(=O)COc1ccc2ccccc2c1)C(=O)N/N=C/C=C/c1ccccc1 (stereo not drawn) | i
OC(Cn1ccnc1)c1ccc(Cl)cc1Cl (stereo not drawn) | 1.2
C=CCSC1=N/C(=C\c2sccc2C)C(=O)S1 | i
Cc1cc2nc(C)n3c4ccccc4nc3n2n1 | 1.6
Cc1cc(Nc2ccc(N3CCC(C)CC3)cc2)n2ncnc2n1 | i
COc1ccc(C(C#N)N2N=C(C)CC2(C)C)cc1OC (stereo not drawn) | i
CC(=O)C1=C(C)NC(SCC(N)=O)=C(C#N)C1c1cccs1 (stereo not drawn) | 1.6
Cc1ccc(-n2c(Cc3cccn3C)nnc2SCC(=O)N2CCc3ccccc32)cc1 | 0.7
O=C(Nc1ccc(F)cc1F)N1CCN(c2ncccn2)CC1 | i
CCOc1ccc(N(CC(=O)Nc2nccs2)S(=O)(=O)c2c(C)noc2C)cc1 | i
CCOc1ccccc1NC(=O)C1CCC(CNc2c(N3CCOCC3)c(=O)c2=O)CC1 (stereo not drawn) | 0.1
Cc1noc(NC(=O)c2ccc(F)cc2)c1C#N | 5.4
C=CCSc1nnc(C)n1-c1ccc(Cl)cc1 | 2.0
CCN(CCCNC(=O)COc1cc(=O)n(CC)c2ccccc12)Cc1ccccc1 | 0.4
O=C(CCN1C(=O)c2ccccc2C1=O)OCN1C(=O)c2ccccc2C1=O | i
Cc1ccc(C)c(NC(=O)CS(=O)(=O)c2c[nH]c3ccccc23)c1 | i
O=C(NC1CCCCC1)N1CCc2[nH]c3ccccc3c2C1 | 0.2

Other compounds
SMILES | H5N1 CPE
COc1cccc(CN2C(=O)CCC2(C)C(=O)NC2CCCCC2)c1 (stereo not drawn) | i
Cc1ccc(NC(=O)CN2C(=O)S/C(=C\c3ccc(-c4cccc(C(=O)O)c4C)o3)C2=O)cc1 | 0.1
COc1ccc(CNC(=S)Nc2cccc(C)c2C)cc1 | 0.6
C1CNCCOCCNCCN1 | 0.0
COc1ccc(CNC(=O)C(C#N)c2nc3ccccc3nc2N2CCCC2)cc1 (stereo not drawn) | i
CCC1CCCCN1C(=O)CSc1nc2c(cnn2-c2ccc(C)cc2)c(=O)[nH]1 (stereo not drawn) | 2.6
COc1ccc(-c2nc(CSCC(=O)NCc3ccc4c(c3)OCO4)c(C)o2)cc1OC | 1.9
COc1ccc(-n2nc(C(=O)NCC(=O)NCC3CCCO3)c3ccccc3c2=O)cc1 (stereo not drawn) | 1.6
Cc1cc(C2C(C#N)=C(N)OC3=C2C(=O)CC(C)(C)C3)c(C)s1 (stereo not drawn) | i
Cc1cc(C)cc(NC(=O)CCNS(=O)(=O)c2ccc3c(c2)oc(=O)n3C)c1 | i
COC(=O)c1ccc(NS(=O)(=O)c2ccc3c(c2)oc(=O)n3C)cc1 | i
N#Cc1c(-c2ccc(Br)cc2)nc2n(c1=O)CCCS2 | 0.3
CCC(=O)N(CCc1ccccc1C)Cc1cc2cc3c(cc2[nH]c1=O)OCO3 | 0.7
COc1cc2nc(N3CCN(C(=O)C4CCCO4)CC3)nc(N)c2cc1OC (stereo not drawn) | i
CC(C)(C)NC(=O)C(c1ccncc1)N(C(=O)c1csnn1)C1CC1 (stereo not drawn) | 0.4
CCNC(=O)N(C)c1nncnc1C(=O)NC | 0.7
Cc1ccc(S(=O)(=O)C2CCOC2=O)cc1 (stereo not drawn) | i
Cc1ccc(C2CC(=O)N3CN(c4ccc(Br)cc4)CSC3=C2C#N)o1 (stereo not drawn) | 1.6
O=C(CN1CCC(n2nnc3cc(C(F)(F)F)ccc32)CC1)Nc1ccc2c(c1)OCCO2 | i
Cc1ccccc1NC(=O)C1CC(Cl)=CCC1C(=O)O (stereo not drawn) | 0.4
COc1ccccc1N1CCN(C(=O)c2ccc(Cl)c(S(=O)(=O)NCc3ccco3)c2)CC1 | 0.1
O=C(Cc1cccs1)N/N=C/C(Br)=C/c1ccccc1 | 0.4
COc1ccc(NC(=O)CSc2ncccc2C(=O)OC(C)C)cc1OC | 1.4
CCn1c(=O)c(NC(=O)c2ccccc2)c2n(c1=S)CCCCC2 | i
Oc1cccc(-c2nc3ccccc3s2)c1 | 1.5

Given in markdown: 7 of the compounds above
| Compound | H5N1 CPE |
| --- | --- |
| O=C(NCCC1=CCCCC1)C1CCN(S(=O)(=O)c2ccc(-n3cnnn3)cc2)CC1 | i |
| Cc1ccc(C)c(NS(=O)(=O)c2cc(C(=O)Nc3ccccc3-c3ccccc3)ccc2Cl)c1 | i |
| Cc1cnc(C(=O)Nc2ccc(-n3cnnn3)cc2)cn1 | 0.4 |
| CN(CCNC(=O)C1CCN(S(=O)(=O)c2cnc[nH]2)CC1)Cc1ccccc1 | i |
| COc1cc(=O)[nH]c(=O)n1CC(=O)c1ccccc1 | i |
| COc1cccc(C(=O)Nc2cc(C(=O)NCCc3ccccc3)ccc2Cl)c1 | 0.1 |
| C=C(C)Cn1c(CCNC(=O)C(C)C)nc2ccccc21 | 3.0 |

The list goes on:
SMILES | H5N1 CPE
COCc1nnc(NC(=O)c2cccs2)s1 | 0.8
O=C(O)CCSc1nc2ccccc2s1 | 0.2
CC(NC(=O)c1nn(C)c(=O)c2ccccc12)c1ccc(F)cc1 (stereo not drawn) | 1.0
COc1cccc(C2=N/C(=C\N(C)C)C(=O)O2)c1 | 0.5
Cc1cc(C)cc(N(C(=O)c2ccc3c(c2)OCO3)C2C=CS(=O)(=O)C2)c1 (stereo not drawn) | 0.5
C/C=C/Cn1c(SC)nc2c1c(=O)[nH]c(=O)n2C | 1.6

Shown as labelled records: entries from further up
O=C(O)CCSc1nc2ccccc2s1
  H5N1 CPE: 0.2
CC(NC(=O)c1nn(C)c(=O)c2ccccc12)c1ccc(F)cc1 (stereo not drawn)
  H5N1 CPE: 1.0
COc1cccc(C2=N/C(=C\N(C)C)C(=O)O2)c1
  H5N1 CPE: 0.5
Cc1cc(C)cc(N(C(=O)c2ccc3c(c2)OCO3)C2C=CS(=O)(=O)C2)c1 (stereo not drawn)
  H5N1 CPE: 0.5
